GIRK2 activ – activators of human GIRK2 potassium channels. HEK293-GIRK2 thallium flux, Thallos fluorescence. P48051. calls only for hits at 25 µM. 63,000 compounds, 0.05% hits;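 active means among the strongest 0.2% of first-round signals and kept after retests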;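 further: first round at about 10 µM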
Target sequence (P48051 whole entry, looked up): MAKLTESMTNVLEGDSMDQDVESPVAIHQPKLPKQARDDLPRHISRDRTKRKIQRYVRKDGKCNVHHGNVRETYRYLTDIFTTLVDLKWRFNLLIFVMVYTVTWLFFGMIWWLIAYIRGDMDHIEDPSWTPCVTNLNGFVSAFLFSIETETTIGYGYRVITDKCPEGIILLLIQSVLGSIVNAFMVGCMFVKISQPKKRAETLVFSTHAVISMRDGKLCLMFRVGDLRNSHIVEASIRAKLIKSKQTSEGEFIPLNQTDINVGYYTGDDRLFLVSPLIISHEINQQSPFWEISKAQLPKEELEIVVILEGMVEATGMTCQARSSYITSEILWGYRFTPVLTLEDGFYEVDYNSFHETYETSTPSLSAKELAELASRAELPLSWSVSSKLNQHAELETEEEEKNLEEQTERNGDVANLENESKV
Calls only; i = inactive. A portion of the library; the hit share may differ from the screen's.

| Molecule | GIRK2 activ |
| --- | --- |
| O=C(NC1=NCCS1)C12CC3CC(C1)CC(c1ccccc1)(C3)C2 | i |
| Cn1cc(CC(=O)NCC2CCC(c3nc4ccccc4[nH]3)CC2)c2ccccc21 (centres undefined) | i |
| Cc1c(-c2nnc(-c3ccncc3)o2)oc2ccccc12 | i |
| COc1ccc(-c2csc(-n3nc(C)cc3NC(=O)c3ccc(C)c([N+](=O)[O-])c3)n2)cc1OC | i |
| c1ccc(CNc2nc(N3CCCC3)c3n[nH]nc3n2)nc1 | i |
| O=C(CSc1ccc(-c2ccccc2Cl)nn1)Nc1ccc2c(c1)CCC2 | i |
| Cc1ccc(-c2ccc(=O)n(C(C)C(=O)NCc3ccccc3Cl)n2)cc1 (centres undefined) | i |
| COc1cccc2sc(OC3CN(C(=O)/C=C/c4ccco4)C3)nc12 | i |
| CSc1ccc(CNC(=O)c2nnn(Cc3nc(-c4ccc(C)cc4)oc3C)c2C)cc1 | i |
| CCOc1ccc(C2C(C(=O)OC)=C(CC)Nc3ncnn32)cc1 (centres undefined) | i |
| COc1ccc(CC(=O)Nc2ccc(SC)nn2)cc1OC | i |
| O=C(NCC1CCN(c2ccccn2)CC1)c1ccc2nsnc2c1 | i |
| Cc1noc(CNS(=O)(=O)c2cc(F)cc(F)c2)n1 | i |
| O=C(Nc1cc2ccccc2oc1=O)c1nc(-c2cnccn2)no1 | i |
| CCCCOc1ccc(NC(=O)N2CC(c3nc(-c4ncccn4)no3)C2)cc1 | i |
| CS(=O)(=O)N1CCN=C1SCc1ccc(F)cc1 | i |
| Cc1[nH]c(=O)[nH]c(=O)c1CCc1nnc(SCC(=O)Nc2nccs2)o1 | i |
| O=C(CCCCCn1cnc2ccccc2c1=O)Nc1ccc2c(c1)OCO2 | i |
| O=C(NCCCn1ncccc1=O)c1ccc2c(c1)OCO2 | i |
| COc1cc(C2NC(=O)NC(C)=C2C(=O)Nc2ccc(Br)cc2)cc(OC)c1OC (centres undefined) | i |
| O=C1CCCC(=O)N1CCS(=O)(=O)N1CCC(COCc2ccccc2)CC1 | i |
| CCOC(=O)CSc1c(C(C)C)cnc2c1c(=O)n(C)c(=O)n2C | i |
| Cn1c(C(F)(F)F)nn(CCNC(=O)Nc2ccc(C(C)(C)C)cc2)c1=O | i |
| O=C(NCCn1ncc2c(NCc3ccco3)ncnc21)c1ccccc1Cl | i |
| O=C(Cc1cccc2ccccc12)N1CCC(CSc2ccccn2)CC1 | i |

The last five entries of the part before are carried over, then new ones follow.
| Molecule | GIRK2 activ |
| --- | --- |
| O=C1CCCC(=O)N1CCS(=O)(=O)N1CCC(COCc2ccccc2)CC1 | i |
| CCOC(=O)CSc1c(C(C)C)cnc2c1c(=O)n(C)c(=O)n2C | i |
| Cn1c(C(F)(F)F)nn(CCNC(=O)Nc2ccc(C(C)(C)C)cc2)c1=O | i |
| O=C(NCCn1ncc2c(NCc3ccco3)ncnc21)c1ccccc1Cl | i |
| O=C(Cc1cccc2ccccc12)N1CCC(CSc2ccccn2)CC1 | i |
| CCOc1cc(C)c(S(=O)(=O)NCc2ccccn2)cc1C(C)C | i |
| CCOc1ccccc1Oc1coc2c3c(ccc2c1=O)OCN(Cc1cccnc1)C3 | i |
| Cc1cc(C)n(CCNS(=O)(=O)c2ccc(C)c(C)c2)n1 | i |
| CNC(=O)Cc1ccc(-n2c(=O)c3ccccc3n(CC(=O)Nc3ccc(C)c(C)c3)c2=O)cc1 | i |
| O=C(/C=C/c1cccs1)NCCC(O)c1cccc2ccccc12 (centres undefined) | i |
| COC(=O)c1ccc(S(=O)(=O)N2CCC(CSc3nc(C)cs3)CC2)cc1 | i |
| COc1ccc(S(=O)(=O)N(C)C2CCCCC2)c2ccccc12 | i |
| COc1ccccc1-c1ccc(N2CCN(S(=O)(=O)CCc3ccccc3)CC2)nn1 | i |
| N#Cc1ccccc1NC(=O)c1cccc(-n2cnnn2)c1 | i |
| O=C(c1cccs1)N(CCN1CCOCC1)c1nc2c(F)cc(F)cc2s1 | i |
| Cc1nc(NCCNC(=O)c2ccc(Cl)cc2)cc(Nc2ccccn2)n1 | i |
| COC(=O)c1ccc(NC(=O)Cn2ncccc2=O)cc1 | i |
| Cc1nc(NCc2ccco2)nc(Nc2ccccc2)c1[N+](=O)[O-] | i |
| O=C(Nc1nnc(Cc2ccc(F)cc2)o1)Nc1ccccc1C(F)(F)F | i |
| COc1ccc2nc(N(CCN3CCOCC3)C(=O)c3ccc(S(C)(=O)=O)cc3)sc2c1 | i |
| O=C(Nc1ccccc1)Nc1nc(CCC(=O)N2CCN(c3ncccn3)CC2)cs1 | i |
| O=S(=O)(NCCN1CCN(c2ccc(Cl)cc2)CC1)c1ccc2c(c1)OCCO2 | i |
| CC(C)(C)NC(=O)C(=O)NCCN1CCN(c2ccccc2)CC1 | i |
| O=C(N1CCC2(CC1)OCCCO2)C1(c2ccc(Cl)cc2)CCCC1 | i |
| O=C(Nc1nc(-c2ccccc2)cs1)C1CCCCN1S(=O)(=O)c1cccs1 (centres undefined) | i |
| Cc1ccc(NC(=O)Cn2nc3c(Oc4cccc(Cl)c4)nccn3c2=O)c(C)c1 | i |
| Cc1oc(-c2ccc(OC(C)C)cc2)nc1Cn1ncn2nc(-c3ccccc3)cc2c1=O | i |
| CCc1nc(OCC(=O)Nc2ccc(Cl)cc2Cl)c2ccccc2n1 | i |
| CCOCCn1c(N2CCCCC2)nc2c1c(=O)[nH]c(=O)n2C | i |
| CCCCOc1ccc(NC(=O)N2CC(c3nc(-c4cccs4)no3)C2)cc1 | i |
| Cc1ccc(CNC(=O)c2ccc(-n3ccnc3SCC(=O)NC(C)(C)C)cc2)cc1 | i |
| Cc1c(C(O)=C2C(=O)C(=O)N(CCN(C)C)C2c2ccco2)cnn1-c1ccccc1 (centres undefined) | i |
| O=C(NCc1cccs1)NCC1COC2(CCCC2)O1 (centres undefined) | i |
| COc1cccc(-n2c(C)c(C)n3c4c(=O)n(CC(=O)OCc5ccccc5)c(=O)n(C)c4nc23)c1 | i |
| NC(=O)CNC(=O)c1nnn(-c2ccc(F)cc2)n1 | i |
| Cc1ccc(S(=O)(=O)c2nc(SCC(=O)Nc3ccccc3)sc2N2CCOCC2)cc1 | i |
| CCCCC(=O)Nc1cc(C(=O)N2CCCC2)cn(C)c1=O | i |
| CCN(CC)c1nc2ccsc2c(=O)n1CCC(=O)N1CCN(c2ccccc2Cl)CC1 | i |
| Cc1ccc(C)c(NC(=O)Cn2nc(-c3ccccc3)c3sc(N4CCOCC4)nc3c2=O)c1 | i |
| COC(=O)c1cc(Cl)ccc1NC(=O)Cn1ccn2nc(-c3ccc(Cl)cc3)cc2c1=O | i |
| COc1ccc(S(=O)(=O)Nc2ccc3c(c2)N(S(=O)(=O)c2ccccc2)CCC3)cc1F | i |
| CCOCCOC(=O)c1ccc(NC(=O)C(C)(C)C)cc1 | i |
| CNC(=O)CSc1nc(-c2ccccc2)cc(C(F)(F)F)c1C#N | i |
| CC(C)Oc1ccc(C(=O)Nc2sc3c(c2-c2nc4ccccc4s2)CCN(C)C3)cc1 | i |
| O=C1NC(=O)C(=C2C=C(c3ccccc3)N(CCN3CCOCC3)C3=C2CCCC3)C(=O)N1 | i |
| COc1ccc(-c2csc(-n3nc(C)cc3NC(=O)C3CCCC3)n2)cc1OC | i |
| CCOc1cc(C)c(S(=O)(=O)NC(C)CC)cc1C(C)C (centres undefined) | i |
| CS(=O)(=O)N1CCN(C(=O)c2coc(NC(=O)c3ccccc3)n2)CC1 | i |
| COC(=O)CC1=CC(SCC(=O)NCc2ccc3c(c2)OCO3)=Nc2ccccc2N1 | i |
| CCc1cc2c(N3CCC(C(N)=O)CC3)nc(C(C)C)nc2s1 | i |
| CCn1nnc2c(N3CC(C(=O)NCCCn4ncccc4=O)C3)ncnc21 | i |
| N#Cc1nc(-c2ccc(S(=O)(=O)N3CCOCC3)cc2)oc1N1CCc2ccccc2C1 | i |
| Nc1nc2c(c(=O)[nH]1)NC(O)N2 (centres undefined) | i |
| O=C(NCCn1nc(-n2ccnc2)ccc1=O)c1cccc(-n2cnnn2)c1 | i |
| CCOc1ccc(CC(=O)Nc2ccc3c(c2)N(S(=O)(=O)c2ccccc2)CCC3)cc1 | i |

Next part.
structure	GIRK2 activ
CCOC(=O)N1CCN(c2ccc(-c3noc(C4CC4)n3)cn2)CC1	i
Cc1onc(-c2ccccc2Cl)c1C(=O)N1CCC2(CC1)OCCS2	i
CCC(C)c1ccccc1OCC(O)CNC(C)(C)C (centres undefined)	i
CCOc1ccc(OCC)c(NC(=O)COc2cc(C)nc(N3CCC(C)CC3)n2)c1	i
Cn1nnnc1SCC(=O)NCC#CCN1CCc2ccccc2C1	i
O=C(COc1ccccc1F)NCC1CCN(C(=O)Oc2ccccc2)CC1	i
O=C(NCc1cc(-c2cccs2)n(C2CCCC2)n1)c1cccs1	i
O=C(NCCC(O)c1ccc2c(c1)OCO2)C(=O)Nc1cccnc1 (centres undefined)	i
Cc1ccc(NC(=O)Nc2cnc(-n3ccnc3)nc2)cc1Cl	i
O=C(CCn1c(=S)[nH]c2cc3c(cc2c1=O)OCO3)N1CCN(Cc2ccccc2)CC1	i
O=C(c1ccc[nH]c1=O)N1CCN(c2ccc(-c3noc(C(F)(F)F)n3)cn2)CC1	i
COc1ccc(-c2noc(-c3cn(-c4ccccc4)c(=O)c4ccccc34)n2)cc1OC	i
O=C(NCc1nc2ccccc2[nH]1)C1(c2cccs2)CCCC1	i
O=C(/C=C/c1ccccc1Cl)N1CCN(c2cc(-c3ccccc3)ncn2)CC1	i
O=C(CSc1nnc(N2CCN(C(=O)Cc3noc4ccccc34)CC2)s1)NCc1ccco1	i
CCOc1ccc(NC(=O)CSc2nc(-c3cccc([N+](=O)[O-])c3)cs2)cc1	i
O=C(C(=O)N1CCOCC1)c1cn(CC(=O)N2CCOCC2)c2ccccc12	i
Cn1c2ccccc2c(=O)c2c(=O)n(Cc3ccccc3)c(-c3cccs3)nc21	i
Cc1ccc(C)c(-n2ccn(Cc3nc(-c4ccc(C)c(C)c4)no3)c(=O)c2=O)c1	i
CCOc1cccc(-c2noc(CSc3nc(-c4ccccc4)cc(=O)[nH]3)n2)c1	i
COc1ccc(F)cc1S(=O)(=O)n1ccnc1	i
COc1cc(C)c(C)cc1S(=O)(=O)Nc1ccc2c(c1)CCCN2S(=O)(=O)c1ccccc1	i
OCCc1nc2ccccc2n1CCCOc1ccccc1	i
COCCN(Cc1ccoc1)C(=O)Nc1ccccc1Cl	i
O=C(C1CCN(Cc2nc3ccccc3[nH]2)CC1)N1CCN(c2ncccn2)CC1	i
Cc1cc(C)n(-c2ccnc(N3CCC(C(=O)NC(C)c4ccc(F)cc4)CC3)n2)n1 (centres undefined)	i
Cc1nc2sc(C)c(C)n2c(=O)c1NC(=O)c1ccncc1	i
O=C(c1ccc(Cl)s1)N1CCOC(c2cc(Cl)cc(Cl)c2)C1 (centres undefined)	i
COC(=O)[C@H](C)NC(=O)Cc1c(C)n(C(=O)c2ccc(Cl)cc2)c2ccc(OC)cc12	i
O=C(NCc1ccco1)C1CCN(c2cc(Oc3ccccc3)ncn2)CC1	i
CC(=O)c1ccc(NC(=O)CSc2ncc(-c3ccc(C)c(C)c3)o2)cc1	i
COc1ccc(C(CNS(=O)(=O)c2ccc(Cl)cc2)N2CCN(C)CC2)cc1 (centres undefined)	i
CCOc1ccc(N(C)S(=O)(=O)c2ccsc2C(=O)NCCC2=CCCCC2)cc1	i
COc1ccccc1N1CCN(CC(=O)NCc2ccccc2Cl)C1=O	i
O=C(NCCc1c[nH]c2ccccc12)C1CCN(c2ccc(-c3ccccc3)nn2)CC1	i
COCCCNC(=O)C(=O)Nc1ccccc1[N+](=O)[O-]	i
CCN(CC)CCNC(=O)C1CCN(c2ncccc2-c2nc(-c3ccccc3)no2)CC1	i
CCCc1nnsc1C(=O)Nc1nc(-c2ccc(Br)s2)cs1	i
COCCn1nnn(-c2ccc(NC(=O)c3cc4ccccc4oc3=O)cc2)c1=O	i
COc1cc(Br)cc2cc(C(=O)OCc3ccccc3)c(=O)oc12	i
CNC(=O)Cc1csc(NC(=O)C2CCN(CC(=O)Nc3ccc(C)cc3C)CC2)n1	i
COc1cc(-c2cc(C(=O)N3CCNC(=O)C3)[nH]n2)cc(OC)c1OC	i
COc1ccc(NC(=O)CCCSc2ccccc2)c([N+](=O)[O-])c1	i
Cc1csc(SCC2CCN(C(=O)c3ccccc3C(F)(F)F)CC2)n1	i
O=C(CCCN1C(=O)c2cccc3cccc(c23)C1=O)N1CCN(c2ccccc2)CC1	i
CCOc1ccc(NC(=O)NCCc2cc(C)no2)cc1	i
O=C(CSc1nccc(N2CCCCC2)n1)Nc1ccc(Br)cc1	i
COc1ccc(-c2csc3c(=O)n(CC(=O)N4CCCCC4)cnc23)cc1	i
O=C(Nc1nc(-c2ccccc2)cs1)C1CCN(S(=O)(=O)c2ccc(F)cc2)CC1	i
Cn1cc(C2=C(c3cn(C)c4c(N)cccc34)C(=O)NC2=O)c2ccccc21	i
COc1ccc(NC(=O)Cn2c(N3CCOCC3)nc(C)cc2=O)cc1	i
O=C(Nc1cnc(-n2ccnc2)nc1)C(c1ccccc1)c1ccccc1	i
CCCCCCCCCCCCC/C=C/C(O)[C@@H](N)CO (some centres undefined)	i
CCCn1cc(-c2nc(-c3cc(OC)c(OC)c(OC)c3)no2)c(=O)c2ccccc21	i
O=C(CN1CCN(C(=O)NCc2ccc(F)cc2)CC1)c1ccco1	i
CCCCn1c(C(=O)NCCc2ccccc2)cc2c(=O)n(C)c(=O)n(C)c21	i
O=C(Nc1cnoc1)c1ccc(OC(F)(F)F)cc1	i
O=S(=O)(c1c(Cl)cccc1Cl)N1CCCCCC1	i

Reformatted: results already given
CCOc1ccc(NC(=O)NCCc2cc(C)no2)cc1
  GIRK2 activ: i
O=C(CSc1nccc(N2CCCCC2)n1)Nc1ccc(Br)cc1
  GIRK2 activ: i
COc1ccc(-c2csc3c(=O)n(CC(=O)N4CCCCC4)cnc23)cc1
  GIRK2 activ: i
O=C(Nc1nc(-c2ccccc2)cs1)C1CCN(S(=O)(=O)c2ccc(F)cc2)CC1
  GIRK2 activ: i

From PubChem BioAssay
